Mtb betalactam: beta-lactam sensitization of Mtb H37Rv; M. tuberculosis H37Rv growth with meropenem, percent inhibition; hits of this screen are not shown here; inhibition, % at 25 µM; actives 0.27% (n = 330,000); AID 434955;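 active means about 74% or more and at least 40 points above the plate without the antibiotic, then above 30% in a dose series; inconclusive means first-round hits that could not be retested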;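 further: growth measured after seven days incubation then overnight dye step; 0% = bacteria only wells and 100% = bacteria with antibiotic; twin plates without the antibiotic show which effects depend on it; some results filed as inactive read as strong as hits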
Arbovirus inh: antivirals against arbovirus infection; arbovirus infection cell-based antiviral screen; inhibition, % at 10 µM; actives 0.37% (n = 200,000); AID 1251;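 active means inhibition from about 30%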;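 further: bluetongue infection of BSR cells; cell survival read as ATP light after 72 h; 0% = infected wells without compound and 100% = uninfected wells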
Mtb growth: M. tuberculosis H37Rv growth inhibitors, H37Rv strain (AID 1626); inhibition, % at 10 µM; hits with a dose series show IC50 in µM; M. tuberculosis H37Rv growth inhibition; higher % means a stronger effect; actives 0.95% (n = 220,000);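 active means confirmed in a dose series; inconclusive means inhibition above 80% but not taken into the dose series; inactive means below 80% or under 30% at every dose of the series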;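 further: bacteria incubated seven days before Alamar blue readout; 0% = bacteria only wells and 100% = bacteria with antibiotic wells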
RecA splice inh: Mtb RecA intein splicing inhibition | actives 0.75% (n = 290,000) | inhibition, %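 (about 9 µM by stock and volumes)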 | cell-free RecA intein splicing, fluorescence | P9WHJ3; in the data active means inhibition above about 30%; inconclusive means no clear call, values can overlap the other calls;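 further: 0% = vehicle wells and 100% = reference inhibitor control wells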
Target sequence (P9WHJ3 whole entry, looked up, canonical isoform): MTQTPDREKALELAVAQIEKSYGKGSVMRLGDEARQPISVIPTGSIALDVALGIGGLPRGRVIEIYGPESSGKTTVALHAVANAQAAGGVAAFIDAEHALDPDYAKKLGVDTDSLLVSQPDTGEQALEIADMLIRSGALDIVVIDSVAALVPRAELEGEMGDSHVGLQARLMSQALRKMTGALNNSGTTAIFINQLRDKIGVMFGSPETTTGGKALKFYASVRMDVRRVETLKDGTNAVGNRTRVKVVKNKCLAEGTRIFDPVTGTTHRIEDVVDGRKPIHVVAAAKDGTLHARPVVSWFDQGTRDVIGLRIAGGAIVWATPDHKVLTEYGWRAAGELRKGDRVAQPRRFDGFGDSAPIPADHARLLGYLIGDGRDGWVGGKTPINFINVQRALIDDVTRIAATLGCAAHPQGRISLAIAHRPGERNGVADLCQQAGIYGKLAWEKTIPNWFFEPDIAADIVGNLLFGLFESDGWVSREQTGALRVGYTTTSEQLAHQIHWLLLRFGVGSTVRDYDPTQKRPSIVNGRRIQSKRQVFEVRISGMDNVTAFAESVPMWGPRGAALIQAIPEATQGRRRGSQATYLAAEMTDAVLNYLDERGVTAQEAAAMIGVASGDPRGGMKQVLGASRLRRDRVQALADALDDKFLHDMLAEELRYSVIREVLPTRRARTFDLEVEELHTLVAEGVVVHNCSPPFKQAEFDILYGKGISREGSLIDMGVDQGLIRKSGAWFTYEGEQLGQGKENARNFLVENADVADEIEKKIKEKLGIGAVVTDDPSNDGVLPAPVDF
YopH inh: blocks Yersinia enterocolitica YopH tyrosine phosphatase | fluorescence Ex485/Em525 | inhibition, %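 (about 10 µM by stock and volumes)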 | actives 0.16% (n = 140,000);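 active means inhibition of 50% or more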;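 further: controls were vehicle for no effect and minimum signal wells for full effect; inactives centre near -20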
An asterisk follows results filed as active; ? = inconclusive; . = not tested or not shown.

SMILES	Mtb betalactam	Arbovirus inh	Mtb growth	RecA splice inh	YopH inh
N#CC1=C(N)Nc2ncnn2C1c1ccccc1 (stereo unspecified)	-8.4	1.9	-4.9%	-5.1	-7.5
Cn1c(CC(=O)Nc2ccc(Cl)c(Cl)c2)nnc1SCC(=O)Nc1nccs1	-2.1	-8.0	-1.8%	-0.8	-15.7
CC(/C=N/NC(=O)Cc1cccs1)=C\c1ccco1	91.1	-8.2	40.2%	1.2	-29.8
O=C(NCc1cc(F)ccc1F)C1CCC(=O)N(C2CCCCCC2)C1 (stereo unspecified)	2.0	.	.	-7.4	.
O=C(Nc1ccc(Cl)cc1)N1CCC(c2ccccc2)C1 (stereo unspecified)	-13.8	-9.2	2.1%	-2.0	.
O=[N+]([O-])c1cc(F)c(N2CCCCCC2)cc1N1CCNCC1	-3.7	-27.5	7.4%	3.2	.
CCN(C(=O)c1cccnc1SC)C12CC3CC(CC(C3)C1)C2	1.2	.	.	1.4	.
COc1cc(NC(=O)COC(=O)CNC(=O)c2ccc(Cl)cc2)c(C)cc1[N+](=O)[O-]	-0.7	6.2	-0.6%	1.6	-19.4
O=C(NCCCN1CCC(Cc2ccccc2)CC1)C1CC(=O)N(C2CCCCCC2)C1 (stereo unspecified)	0.7	-14.7	-4.5%	1.7	-11.1
Cn1c(N)nc2ccccc2c1=O	-13.5	.	-11.0%	6.5	.
Cc1ccc(NC(=O)CNCc2ccc(Cl)cc2Cl)cc1S(=O)(=O)N(C)C	7.8	.	.	2.8	.
O=C(CCS(=O)(=O)c1ccccc1)N(CCCN1CCOCC1)c1nc2ccccc2s1	72.7	.	.	0.8	.
COc1ccc(-c2nnc(-c3cc(OC)c(OC)c(OC)c3)o2)cc1OC	7.2	38.1*	-3.6%	-1.8	-12.0
Cc1ccc(OCCC(=O)OCC(=O)NCCc2ccc(Cl)cc2)cc1	3.0	.	.	-0.5	.
O=C(O)C(=O)/C(=C\c1ccsc1)c1ccc2ccccc2n1	-0.9	.	.	-6.4	.
CCN(Cc1ccccc1)C(=O)COC(=O)c1cc(=O)[nH]c2ccccc12	-0.4	2.9	2.4%	-2.1	.
CNc1nc(N)c(C(=O)Nc2cc(C)on2)s1	2.2	-3.5	-0.1%	-0.6	.
Cc1cc(NC(=O)c2cc(-c3ccc(C)c(C)c3)nc3ccccc23)no1	4.5	-1.8	6.5%	5.7	-23.4
O=C(CN1CCCCC1)c1ccccc1Cl	-5.0	-3.6	-3.7%	-2.3	-25.6
CCOc1cc(C(=O)NCC2CCCO2)cc(OCC)c1OCC (stereo unspecified)	-8.0	-1.8	-4.4%	-2.9	-20.8
CCCCC(=O)Nc1nnc(-c2ccc(OC)cc2)s1	34.7	0.5	0.3%	.	37.8
c1ccc(Oc2ncnc3sccc23)cc1	-18.0	2.7	-2.2%	-1.5	.
COc1ccc(Cc2nc3ccc(S(=O)(=O)N4CCOCC4)cc3[nH]2)cc1	-5.9	7.7	0.0%	1.9	-22.1
OC1(c2ccc(F)cc2)CCN(Cc2ccccc2)C1 (stereo unspecified)	-6.5	-0.1	-4.2%	-0.3	-26.0
COc1ccc(C(=O)c2sc(NC(C)C)nc2N)cc1OC	8.1	9.5	7.7%	.	-68.9
O=C(C1CCCN(S(=O)(=O)c2cc(Cl)ccc2Cl)C1)N1CCCCCC1 (stereo unspecified)	-19.1	.	.	1.0	.
CC(C)OCCCNc1ncc2c(n1)CC(c1ccc(N(C)C)cc1)CC2=O (stereo unspecified)	35.3	-0.3	5.7%	-1.7	-10.4
CCCCNc1ccc(C(CC(N)=O)NC(=O)c2ccccc2)cc1[N+](=O)[O-] (stereo unspecified)	1.2	.	-11.2%	-1.0	.
CC(=O)NC(Cc1ccc(F)cc1)C(=O)N1CCN(C(=O)NCc2ccccc2)CC1 (stereo unspecified)	?	0.3	-6.1%	0.4	5.6
Clc1ncc(Cn2cccn2)s1	-5.1	2.0	6.8%	0.6	.
COc1ccc(-c2cc(C)no2)cc1S(=O)(=O)N1CCOc2ccccc21	0.4	.	.	-2.0	.
OCC1(CCc2ccccc2)CCCN(CCCc2ccccc2)C1 (stereo unspecified)	-5.9	.	.	2.8	.
c1ccc(C2OCC3(CO2)COC(c2ccccc2)OC3)cc1 (stereo unspecified)	-1.6	18.1	0.5%	-2.0	21.6
ON=Cc1cccn1-c1ccccc1	0.6	-3.6	-3.7%	-1.9	-13.4
CCOCCCN(C(=O)CNC(=O)c1ccco1)C(C(=O)NC1CCCC1)c1cccc(OC)c1 (stereo unspecified)	-0.9	.	.	-0.4	.
CNC(=O)COC(=O)Cc1ccc(Cl)cc1	-1.8	-3.6	-6.9%	-3.9	.
COc1ccc(OC)c(NC(=O)Cn2c(=O)n(CC(=O)NCc3ccco3)c(=O)c3ccccc32)c1	-5.8	-9.4	-3.8%	-1.3	-14.1
Cc1nc(Cl)sc1C(=O)Nc1cccc2ccccc12	8.8	-6.2	0.7%	1.6	5.7
COCCNC(=O)c1ccccc1NC(=O)c1cc(OC)cc(OC)c1	-2.0	-3.8	0.5%	5.5	-32.6
Cc1cc(=O)[nH]c(Nc2ccccc2C)n1	-3.8	.	.	2.5	.
COc1ccc(NC(=O)CC2SC(=N)N(c3ccccc3)C2=O)c(OC)c1 (stereo unspecified)	-7.9	6.3	-2.7%	-1.2	.
CCOc1ccccc1NC(=O)Nc1ccc(Br)cc1C	-1.2	-2.4	-4.4%	-0.3	.
CCOc1ccccc1NC(=O)CSc1nc(=O)n(Cc2ccccn2)c2c1CCC2	-4.5	.	.	2.0	.
CC(C(=O)NC1CC(C)(C)NC(C)(C)C1)c1ccc([N+](=O)[O-])cc1 (stereo unspecified)	-1.4	2.9	-0.7%	-2.4	.
N#Cc1c(-c2ccc(F)cc2)cc(-c2cccs2)nc1SCC(=O)O	-7.3	.	.	2.0	.
COc1ccc(C)cc1S(=O)(=O)NCC(c1ccc2c(c1)OCO2)N1CCOCC1 (stereo unspecified)	-0.8	.	.	0.1	.
Cc1ccc(NP(=O)(Oc2ccccc2F)Oc2ccccc2F)cc1	16.9	-29.3	9.5%	10.5	-34.4
CCCCCNC(=O)c1ccccc1SC	63.0	2.0	3.6%	-0.3	0.9

16 consecutive records out of the list so far:
SMILES	Mtb betalactam	Arbovirus inh	Mtb growth	RecA splice inh	YopH inh
CC(/C=N/NC(=O)Cc1cccs1)=C\c1ccco1	91.1	-8.2	40.2%	1.2	-29.8
O=C(NCc1cc(F)ccc1F)C1CCC(=O)N(C2CCCCCC2)C1 (stereo unspecified)	2.0	.	.	-7.4	.
O=C(Nc1ccc(Cl)cc1)N1CCC(c2ccccc2)C1 (stereo unspecified)	-13.8	-9.2	2.1%	-2.0	.
O=[N+]([O-])c1cc(F)c(N2CCCCCC2)cc1N1CCNCC1	-3.7	-27.5	7.4%	3.2	.
CCN(C(=O)c1cccnc1SC)C12CC3CC(CC(C3)C1)C2	1.2	.	.	1.4	.
COc1cc(NC(=O)COC(=O)CNC(=O)c2ccc(Cl)cc2)c(C)cc1[N+](=O)[O-]	-0.7	6.2	-0.6%	1.6	-19.4
O=C(NCCCN1CCC(Cc2ccccc2)CC1)C1CC(=O)N(C2CCCCCC2)C1 (stereo unspecified)	0.7	-14.7	-4.5%	1.7	-11.1
Cn1c(N)nc2ccccc2c1=O	-13.5	.	-11.0%	6.5	.
Cc1ccc(NC(=O)CNCc2ccc(Cl)cc2Cl)cc1S(=O)(=O)N(C)C	7.8	.	.	2.8	.
O=C(CCS(=O)(=O)c1ccccc1)N(CCCN1CCOCC1)c1nc2ccccc2s1	72.7	.	.	0.8	.
COc1ccc(-c2nnc(-c3cc(OC)c(OC)c(OC)c3)o2)cc1OC	7.2	38.1*	-3.6%	-1.8	-12.0
Cc1ccc(OCCC(=O)OCC(=O)NCCc2ccc(Cl)cc2)cc1	3.0	.	.	-0.5	.
O=C(O)C(=O)/C(=C\c1ccsc1)c1ccc2ccccc2n1	-0.9	.	.	-6.4	.
CCN(Cc1ccccc1)C(=O)COC(=O)c1cc(=O)[nH]c2ccccc12	-0.4	2.9	2.4%	-2.1	.
CNc1nc(N)c(C(=O)Nc2cc(C)on2)s1	2.2	-3.5	-0.1%	-0.6	.
Cc1cc(NC(=O)c2cc(-c3ccc(C)c(C)c3)nc3ccccc23)no1	4.5	-1.8	6.5%	5.7	-23.4

(cont.)
SMILES	Mtb betalactam	Arbovirus inh	Mtb growth	RecA splice inh	YopH inh
COc1ccc(NC(=O)Cc2c(F)c(F)c(F)c(F)c2F)cc1OC	0.5	.	5.2%	-0.6	.
O=C(O)c1ccc2ncc(NC(=O)c3ccc(F)cc3)c(=O)n2c1	4.2	.	-7.9%	2.2	.
Cc1cc(C(=O)NC2CCCN(Cc3ccc(Cl)cc3)C2)c(C)o1 (stereo unspecified)	5.4	.	.	4.8	.
COc1ccc(CC(=O)Nc2ccccc2N2CCCCC2)cc1OC	0.7	.	6.9%	5.4	.
O=C(NCCC1=CCCCC1)C(=O)NCc1ccncc1	4.6	18.1	-8.7%	-0.6	.
COc1cccc(NC(=O)c2nn(-c3ccc(OC)cc3OC)c(=O)c3ccccc23)c1	0.1	-1.3	-0.4%	-1.9	.
O=C(CN(Cc1ccco1)C(=O)CNS(=O)(=O)c1ccc(F)cc1)NCc1ccco1	-5.1	.	.	0.4	.
COc1ccccc1N1CCN(CCCCOc2ccc(F)cc2)CC1	1.1	13.4	1.1%	1.3	-12.3
CCN(c1ccccc1)S(=O)(=O)c1cccc(C(=O)O)c1	6.6	0.0	-7.3%	0.3	-41.1
COc1ccc(S(=O)(=O)NC2CCCC2)cc1Br	-5.1	3.3	4.0%	0.0	38.4
NC(=O)COC(=O)c1cc(S(=O)(=O)N2CCOCC2)ccc1N1CCCCC1	-1.9	13.7	-0.4%	-0.4	-16.5
O=C(O)/C=C/c1ccc(O)c(O)c1	31.9	7.3	9.0%	-2.0	16.8
CCN1CCN(Cc2c(C)[nH]c3ccc(OC)cc3c2=O)CC1	6.0	-0.5	.	-2.2	15.0
C/C=C/c1ccc(OCC(=O)NCc2ccccc2OC)c(OC)c1	3.9	-2.6	3.5%	-2.2	.
Cc1ccc(-c2noc(CSc3nnc(Cc4ccccc4)n3-c3cccc(C)c3)n2)cc1	.	-31.7	0.2%	16.8	-16.0
CCOC(=O)/C(C(N)=NCc1ccco1)=C(/O)c1ccccc1	-0.5	-7.8	0.6%	3.0	-1.9
Cc1ccc(C(=O)O)cc1NC(=O)c1ccc2c(c1)C(=O)N(c1ccc([N+](=O)[O-])cc1)C2=O	-2.6	.	.	-0.3	.
COc1ccccc1OC(=O)Nc1ccc(Cl)cc1	0.5	.	.	1.0	.
CC(=O)OC1(c2ccccc2)CC(C(C)(C)C)CN(C(C)(C)C)C1 (stereo unspecified)	-1.7	-1.1	-5.3%	2.8	-33.6
O=C(CN1C2=NCCCN2c2ccccc21)c1ccc(Cl)cc1Cl	3.0	-19.4	14.9%	-98.9	-25.3
CCCCc1cc(=O)oc2c3c(cc(OCC(=O)N4CCC[C@H]4C(=O)O)c12)OC(C)(C)CC3	2.4	.	.	-2.4	.
CCOC(=O)N1CCC(N2CCN(S(=O)(=O)c3ccc4ccccc4c3)CC2)CC1	-8.3	16.4	1.3%	-0.8	7.3
COc1ccc(N2CCN(S(=O)(=O)CCNC(=O)Cc3ccc([N+](=O)[O-])cc3)CC2)cc1	4.1	.	.	-0.3	.
COc1ccc(C(=O)O)cc1N1C(=O)Nc2ccccc2N1O	3.7	0.2	.	-0.6	.
Cc1cccc(CN2CCC(Oc3ccc(C(=O)N4CCCC4)cc3)CC2)n1	-9.3	.	.	-2.0	.
CN(NC(=O)c1ccccc1F)c1nc(C(F)(F)F)nc2ccccc12	-2.5	-9.2	1.8%	1.2	.
COC(=O)[C@H](Cc1ccccc1)NC(=O)N1CCCCCC1	-3.5	.	.	0.4	.
COc1ccc(-c2csc(NC(=S)NC(=O)c3ccc4ccccc4c3)n2)cc1OC	2.2	.	.	-0.3	.

A few values from the results shown.
Value for COc1ccc(-c2cc(C)no2)cc1S(=O)(=O)N1CCOc2ccccc21 in RecA splice inh: -2.0
Value for COc1cc(NC(=O)COC(=O)CNC(=O)c2ccc(Cl)cc2)c(C)cc1[N+](=O)[O-] in Mtb growth: -0.6%
Value for c1ccc(C2OCC3(CO2)COC(c2ccccc2)OC3)cc1 (stereo unspecified) in RecA splice inh: -2.0

Screening data deposited in PubChem BioAssay by several laboratories.

This is a subset, so the mix of outcomes need not match the whole.
